From PubChem BioAssay
2A firefly – Primary qHTS Assay for Foot and Mouth Disease Virus Antivirals against NCGC Sytravon and CBC Compound Libraries: Firefly Luciferase Signal | HEK cells with a luciferase reporter of 2A StopGo recoding | Potency, µM (doses to about 57.5 µM), for inactives: at the highest dose signal change, negative = less light | 120,000 compounds, 0.23% hits; active = well fitted falling curve with a large enough effect; inconclusive = small, poorly fitted or top-dose-only effect; inactive = no such curve, though single readings can be large or run the other way; note: nearly all actives have a fitted effect of over 60% in size; overnight with compound
StopGo RLuc – Primary qHTS Assay for Foot and Mouth Disease Virus Antivirals against NCGC Sytravon and CBC Compound Libraries: Renilla Luciferase Signal | Potency, µM (doses to about 57.5 µM), without a hit: at the top dose signal change, negative = less light | 120,000 compounds, 0.32% hits | AID 1745857, 2022 | HEK cells with a luciferase reporter of 2A StopGo recoding; active means well fitted falling curve with a large enough effect; inconclusive means small, poorly fitted or top-dose-only effect; inactive means no such curve, though single readings can be large or run the other way; note: nearly all actives have a fitted effect of over 55% in size; overnight with compound
Active calls of the source: *; ? = inconclusive; [ ] = remark or other dose. % is set by controls: 0 for no effect and ±100 for the full control effect; potency is the fitted concentration of half-maximal effect.

[1] COc1ccc(-c2c(C#N)c(SCC(=O)Nc3ccccc3C)nc(C)c2C(=O)Nc2ccccc2)cc1OC
[2] O=C(O)c1cc2ccc3cccnc3c2[nH]1
[3] COC(=O)CNC(=O)Cn1cc(C(C)=O)c2ccccc21
[4] CCSc1nc2c([nH]c3ccccc32)c(=O)n1-c1ccc(OC)cc1
[5] C/C(=N/N=C(/C)c1ccc[nH]1)c1ccc[nH]1
[6] CC(C)CNC(=O)COc1cc(O)c2c(=O)cc(-c3ccccc3)oc2c1
[7] COc1ccc(NC(=O)C2CCCN(S(=O)(=O)c3c(C)[nH]c(=O)[nH]c3=O)C2)cc1 (stereo not given)
[8] CC(C)(C)NC(=O)[C@@H]1CN(Cc2cccnc2)CCN1C[C@@H](O)C[C@@H](Cc1ccccc1)C(=O)N[C@H]1c2ccccc2C[C@H]1O
[9] COc1ccc2oc(C(=O)OC(C)C#N)c(C)c2c1 (stereo not given)
[10] O=C(NNc1ncnc2c1cnn2-c1ccccc1)C1CCCCC1

Compound	1	2	3	4	5	6	7	8	9	10
2A firefly	0%	6%	3%	?	12%	-5%	-3%	-21%[11.5 µM]	27%	14%
StopGo RLuc	-13%	10%	-1%	-4%	1%	-9%	-9%	-11%	3%	13%

Complete entries as entered above. Order of screens: 2A firefly	StopGo RLuc
CC(C)(C)NC(=O)[C@@H]1CN(Cc2cccnc2)CCN1C[C@@H](O)C[C@@H](Cc1ccccc1)C(=O)N[C@H]1c2ccccc2C[C@H]1O as listed: -21%[11.5 µM]	-11%
CC(C)CNC(=O)COc1cc(O)c2c(=O)cc(-c3ccccc3)oc2c1 as listed: -5%	-9%

Other structures follow.
[11] O=C(NC1CCCCC1)c1ccc(CSc2nc3ccncc3n2Cc2ccccc2F)cc1
[12] COc1ccc(CCNC(=O)c2ccc(CNS(=O)(=O)c3ccccc3)cc2)cc1OC
[13] CCn1cc(C(=O)N2CCN(c3ccccc3)CC2)c(=O)c2cc(S(=O)(=O)N3CCOCC3)ccc21
[14] CC1=CCC2C(C)(CC[C@H](O)C2(C)C)C1COc1ccc2ccc(=O)oc2c1 (stereo not given in full)
[15] CC(=O)N1CCCc2cc(S(=O)(=O)N3CCCC(C(=O)NC(C)C)C3)ccc21 (stereo not given)
[16] Cc1ccc(S(=O)(=O)N2CCCCC2)cc1NC(=O)COC(=O)C1CC1
[17] Cn1c(=O)c2c(nc(CN3CCN(Cc4ccccc4)CC3)n2Cc2cccc(Cl)c2)n(C)c1=O
[18] Cc1cc(NC(=O)CSc2ncc(C(=O)Nc3ccc(Cl)cc3)c(=O)n2C)no1
[19] Clc1cccc(-n2ncc3c(NCCCN4CCOCC4)ncnc32)c1
[20] C[C@H]1O[C@H](O[C@H]2[C@H](O)[C@@H](O)[C@@H](O[C@H]3[C@H](O)[C@@H](O)[C@H](O)O[C@@H]3CO)O[C@@H]2CO)[C@H](O)[C@@H](O)[C@@H]1N[C@H]1C=C(CO)[C@@H](O)[C@H](O)[C@H]1O

Compound	11	12	13	14	15	16	17	18	19	20
2A firefly	52%[activator]	-9%	18%	?	5%	0%	-22%	-19%	155%[activator]	26%[11.5 µM]
StopGo RLuc	18%	0%	12%	?	-12%	4%	-27%	3%	-18%	12%

[21] N#C/C(=C\c1cccc(Oc2ccccc2)c1)C(=O)Nc1cc(C(F)(F)F)ccc1Cl
[22] CCC(=O)Nc1nnc(S(=O)(=O)N2CCCCCC2)s1
[23] O=S(=O)(Nc1cccc(-c2ccc(N3CCCCC3)nn2)c1)c1cccs1
[24] C#CCN1CCC(C(=O)NCCNC(=O)c2ccccc2)CC1
[25] CC(=O)NC1(C(=O)NCC(=O)NC(C)(C)C)CCCCC1
[26] CCC1(C)NC(=O)N(NC(=O)c2nn(-c3ccccc3)c(=O)c3ccccc23)C1=O (stereo not given)
[27] COc1ccc(C2SCC(=O)Nc3c2c(C)nn3-c2ccc(C)cc2)cc1OC (stereo not given)
[28] CCCOc1ccc(-c2nc(C#N)c(NCc3ccccc3Cl)o2)cc1
[29] COc1cccc(Cc2nc3ccccc3nc2SCC(=O)N2CCc3ccccc32)c1
[30] CC(C)(C)CC(=O)Nc1ccncc1

Compound	21	22	23	24	25	26	27	28	29	30
2A firefly	?	-8%	180%[activator]	-10%	-6%	8%	-3%	2%	5%	0%
StopGo RLuc	?	-11%	100%[activator]	-4%	-2%	-1%	-12%	14%	2%	11%

[31] Cc1ccc(N(CC(=O)N2CCN(c3ccc(Cl)cc3)CC2)S(=O)(=O)c2c(C)noc2C)cc1
[32] CCn1c(SCc2cc(=O)n3[nH]cc(C#N)c3n2)nnc1-c1ccc(Cl)cc1
[33] CC1=C(C(=O)N2CCCCC2)C(c2cccc(Cl)c2)n2c(nc3ccccc32)N1 (stereo not given)
[34] COc1ccc(NC2=NC(CC(=O)Nc3ccc4c(c3)OCCO4)C(=O)N2)cc1 (stereo not given)
[35] COc1cc(C)c(Cl)cc1S(=O)(=O)NCCc1c(C)[nH]c2ccccc12
[36] COc1ccccc1CNC(=O)c1ccc2c(c1)CCN2S(=O)(=O)c1ccc(Cl)cc1
[37] Cc1cc(C)cc(NC(=O)C(=O)NCC(c2cccnc2)N2CCN(c3ccccc3)CC2)c1 (stereo not given)
[38] Cc1cc(C)c2oc(C(=O)Nc3onc4c3CC(C)CC4)cc(=O)c2c1 (stereo not given)
[39] Cc1ccc(Cl)cc1NC(=O)Cn1c(=O)n(CCC(=O)NCc2ccc3c(c2)OCO3)c(=O)c2sccc21
[40] Cc1ccc(C)c2sc(NC(=O)c3ccc(S(=O)(=O)N4CCCC4)cc3)nc12

Compound	31	32	33	34	35	36	37	38	39	40
2A firefly	2%	3%	-21%	12%	-4%	-17%	-3%	3%	13%	-14%
StopGo RLuc	-8%	-7%	6%	-1%	341%[activator]	1%	5%	-2%	1%	-15%

[41] CCc1ccccc1NC(=O)c1cc2nc(-c3ccc(OC)c(OC)c3)cc(C(F)(F)F)n2n1
[42] CN1C(=O)N(Cc2coc(-c3cccs3)n2)C(=O)C12CCCCC2
[43] COc1ccc(NC(=O)c2cnc(SCC(=O)Nc3nc4ccc(C)cc4s3)n(C)c2=O)cc1
[44] CC(C)=CC(=O)NC(C)c1cc(C)sc1C (stereo not given)
[45] CCOc1ccc(NC(=O)/C=C/c2ccccc2)cc1
[46] Cc1ccc(OCn2ccc(C(=O)NCc3c(C)nn(C)c3C)n2)c(C)c1
[47] Cc1ccc(NC(=O)CN(C)C(=O)CCc2ncc(-c3ccccc3)o2)cc1
[48] Cc1ccccc1NS(=O)(=O)c1ccc2[nH]cc(C(=O)NCCc3ccccc3)c(=O)c2c1
[49] O=C(CCC1CCCC1)Nc1cc(C(F)(F)F)ccc1Cl
[50] CCc1cccc2c(C(=O)C(=O)Nc3cccc(F)c3)c[nH]c12

Compound	41	42	43	44	45	46	47	48	49	50
2A firefly	3%	13%	16%	6%	79%[activator]	13µM*	170%[activator]	-29%	11%	225%[activator]
StopGo RLuc	1%	5%	-7%	8%	-5%	10µM*	17%	14%	13%	0%

[51] Cc1ccc(NC(=O)c2cc(C3CC3)nc3ccccc23)c(C)c1
[52] O=C(O)CCC(=O)c1cccc(Br)c1
[53] O=C(COc1ccccc1[N+](=O)[O-])N1CCC(c2nc3ccccc3o2)CC1
[54] O=C(CSc1nnc(-c2ccc(Cl)cc2)n1Cc1ccco1)N1CCOC1=O
[55] CCOc1ccc(-c2nn(CC(=O)NC3CCCC3)c3c2cnc2ccc(F)cc23)cc1
[56] CCOC(=O)c1c(C)oc2ncnc(NCC3CCN(Cc4ccccc4F)CC3)c12
[57] CC(N)Cc1cccs1 (stereo not given)
[58] Cc1cc(Cl)ccc1OCC(=O)NCc1cccc(NC(=O)C2CC2)c1
[59] CCc1ccccc1NC(=O)c1sc2nc3c(cc2c1N)CN(C)CC3
[60] CCCCCCCn1c(SCC(N)=O)nc2c1c(=O)[nH]c(=O)n2C

Compound	51	52	53	54	55	56	57	58	59	60
2A firefly	15%	3%	-20%	-9%	31%[activator]	13%	-10%	10%	-5%	71%[activator]
StopGo RLuc	8%	-7%	-10%	-13%	0%	4%	3%	108%[activator]	?	40%[activator]

[61] O=C(Cn1ccc2ccccc2c1=O)NCCC(=O)Nc1ccc(F)cc1F
[62] COc1ccc(Nc2nc3ccccc3nc2NS(=O)(=O)c2ccc3c(c2)OCCO3)cc1Cl
[63] FC(F)(F)CN1CCNCC1
[64] O=C(CC1CCCC1)NCCC1CCN(C(=O)NC2CCCCC2)CC1
[65] CCN(CC(=O)Nc1c(F)cccc1F)C(=O)Cc1n[nH]c(=O)c2ccccc12
[66] O=C(OC1CCOC1=O)c1ccc([N+](=O)[O-])cc1Cl (stereo not given)
[67] Cc1ccc(CNC(=O)c2ccc(N3CCCC3)c(NC(=O)Nc3ccc(F)c(Cl)c3)c2)cc1
[68] COc1ccccc1OCC(C)N (stereo not given)
[69] CC(NC(=O)CSCc1cccc(Br)c1)C1CC2CCC1C2 (stereo not given)
[70] CCCCCC1C(O)CC(c2ccccc2)N(C)C1c1ccccc1 (stereo not given)

Compound	61	62	63	64	65	66	67	68	69	70
2A firefly	-17%	117%[activator]	-2%	3%	3%	0%	-9%	6%	4%	7%
StopGo RLuc	1%	83%[activator]	-4%[1.06 µM]	-6%	-4%	18%	34%[activator]	-6%	14%	41%[activator]

Compounds from the list above that have a nitro group on carbon:
[53] O=C(COc1ccccc1[N+](=O)[O-])N1CCC(c2nc3ccccc3o2)CC1
[66] O=C(OC1CCOC1=O)c1ccc([N+](=O)[O-])cc1Cl (stereo not given)

Compound	53	66
2A firefly	-20%	0%
StopGo RLuc	-10%	18%

(continued)
[71] CCc1ccc(-n2nc(C)c3c(C(F)(F)F)cc(OCC(=O)NC(C)C)nc32)cc1
[72] Cc1cccc(-c2nnc3n(CCc4ccccc4)c(=O)c4ccccc4n23)c1
[73] O=C(Nc1nccs1)c1ccc(-c2ccc(Cl)cc2Cl)o1
[74] CC(=O)NC1CC(=O)N(c2ccc3c(c2)OCCO3)C1 (stereo not given)
[75] O=c1oc2ccc(Cl)cc2cc1-c1nc(-c2ccc(F)cc2)no1
[76] O=C(NC12CC3CC(CC(C3)C1)C2)c1cccc2ncccc12
[77] CCc1ccccc1N(CC)C(=O)C(=O)Nc1ccc2nc3n(c(=O)c2c1)CCCCC3
[78] O=C(c1ccc(CSc2nc3ccncc3n2Cc2ccccc2)cc1)N1CCCCCC1
[79] COC(=O)/C=C/c1ccc(OS(C)(=O)=O)c(OC)c1
[80] COc1ccc(CCNC(=O)CCc2c(C)noc2C)cc1OC

Compound	71	72	73	74	75	76	77	78	79	80
2A firefly	0%	46%[activator]	219%[activator]	-14%	4%	1%	-20%	22%	54%[activator]	24%
StopGo RLuc	-5%	2%	9%	-4%	1%	-5%	24%	28%	19%	1%

[81] Cc1ccc(-c2noc(CNS(=O)(=O)c3ccc(F)cc3)n2)cc1
[82] CC(C)CNC(=O)NCCn1c(-c2ccccc2)nc2ccccc21
[83] CCc1nn(C(CC)C(=O)NCc2ccc(F)cc2)c(=O)c2cc3occc3n12 (stereo not given)
[84] CCc1ccc(C(C)NC(=O)Cc2cccs2)cc1 (stereo not given)
[85] COc1ccc(CCNC(=O)CCc2cn(Cc3ccccc3Cl)c3ccccc23)c(OC)c1
[86] Cc1cc2oc(C(=O)Nc3ccc(OC(F)F)cc3)cc(=O)c2cc1C
[87] Cc1c(CC(=O)N2CCC(O)(c3ccc(Cl)cc3)CC2)c(=O)oc2cc(O)c(Cl)cc12
[88] COc1ccc(Nc2cc(C(=O)NC3CCCC3)c3ccccc3n2)cc1

Compound	81	82	83	84	85	86	87	88
2A firefly	-7%	-2%	-3%	0%	-20%	19%	-2%	14%
StopGo RLuc	-26%	2%	85%[activator]	30%	-5%	10%	-2%	26%

A draw from above in order of molar mass, high to low:
[27] COc1ccc(C2SCC(=O)Nc3c2c(C)nn3-c2ccc(C)cc2)cc1OC (stereo not given)
[58] Cc1cc(Cl)ccc1OCC(=O)NCc1cccc(NC(=O)C2CC2)c1
[10] O=C(NNc1ncnc2c1cnn2-c1ccccc1)C1CCCCC1
[49] O=C(CCC1CCCC1)Nc1cc(C(F)(F)F)ccc1Cl
[50] CCc1cccc2c(C(=O)C(=O)Nc3cccc(F)c3)c[nH]c12

Compound	27	58	10	49	50
2A firefly	-3%	10%	14%	11%	225%[activator]
StopGo RLuc	-12%	108%[activator]	13%	13%	0%
